# Rce1 inhib: inhibitors of yeast Ras-converting enzyme. calls only. AID 2563. yeast membranes, quenched prenylated peptide cleavage fluorescence. 290,000 tested, 0.27% active. Q03530;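 active means fall in fluorescence gain of 50% or more versus controls, with final raw signal at or below 3038400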;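 further: plate controls were neutral control wells for no effect and wells lacking membranes for full effect; tested at 10 µM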
# Target sequence (Q03530 whole entry, looked up): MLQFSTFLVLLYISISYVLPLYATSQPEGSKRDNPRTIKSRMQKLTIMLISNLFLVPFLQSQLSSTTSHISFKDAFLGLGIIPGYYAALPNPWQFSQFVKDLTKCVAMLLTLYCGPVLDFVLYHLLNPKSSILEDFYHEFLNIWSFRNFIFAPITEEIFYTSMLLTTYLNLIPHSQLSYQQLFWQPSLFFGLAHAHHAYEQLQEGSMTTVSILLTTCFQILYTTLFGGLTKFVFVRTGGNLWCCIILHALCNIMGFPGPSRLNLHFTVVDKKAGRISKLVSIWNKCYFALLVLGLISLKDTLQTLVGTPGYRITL
# HIV Env fusion: HIV envelope-mediated fusion inhibition; AID 651610; 360,000 tested, 1.1% active; inhibition, % at 12.3 µM; HeLa-JRFL Env/CEM21 cell fusion, luciferase;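 active means mean replicate inhibition score of at least 50 and every replicate individually at or above 50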;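 further: 0% = plate neutral controls and 100% = maraviroc near 300 nM; one replicate is shown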
# MT1-MMP act inh: inhibitors of human MT1-MMP activation. P50281. HT1080 RFP-PRO-GFP cells, GFP/RFP ratio fluorescence, overnight; percent of plate control window, DMSO zero. GFP/RFP ratio change, % at 20 µM. 360,000 tested, 0.061% active. AID 651647;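 active means GFP/RFP ratio change of at least 30% with cell ATP level not reduced by more than half and red fluorescence within 50% of control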; further: strong numbers were not always called active
#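 Read-out: GFP/RFP fluorescence ratio; Test system: RFP-PRO-GFP reporter HT1080 cells; Compound dosing: single-point 20 µM compound, 1% DMSO; Times: overnight compound exposure at 37 °C.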
# CSC inhib: cancer stem cell inhibition | 300,000 tested, 1.1% active | cancer stem cell-like cells viability, luminescence | AID 2717 | inhibition, % at 7.5 µM;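 active means mean at 75% or more and at least half the replicates too; tested in HMLE shEcad cells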;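 further: 0% = median of negative and 100% = median of positive control wells; the first replicate is given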
# Yeast UUG start: yeast start codon fidelity modulation; S. cerevisiae UUG-firefly luciferase reporter, luminescence/redox ratio; activity score, % at 18.7 µM; 350,000 tested, 0.13% active;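 active means replicate mean at a twofold rise or more, about +100% in these data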;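 further: firefly luciferase made from a UUG start codon reports start codon fidelity; reporter light over untreated wells divided by growth signal over untreated wells; some hits fall short of that in this replicate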
# PABP polyA inh: PABP-poly(A) binding inhibition | PABP-poly(A) RNA binding, fluorescence polarization | inhibition, % at 35 µM | 290,000 tested, 1% active | AID 2014;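 active means 50% or more with normal probe brightness, or confirmed in later tests; about a fifth of its hits are not listed in these tables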;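 further: calls also rest on retests at 20 µM and on dose response follow-up; controls were probe without protein and protein plus probe with vehicle; some compounds called inactive have numbers as strong as hits; many hits fall short of the cut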
# eIF4H inh: inhibitors of RNA binding by human eIF4H. Q15056. eIF4H fluorescence polarization binding assay. inhibition, % at 35 µM. 290,000 tested, 0.94% active. AID 2012;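 active means 50% or more with normal probe brightness, or confirmed in later tests; about a fifth of its hits are not listed in these tables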;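 further: calls also rest on retests at 20 µM and on dose response follow-up; 0% = protein and probe with vehicle and 100% = probe without protein; strong numbers were not always called active; many hits fall short of the cut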
# MT1-MMP act inh RFP: second read-out of MT1-MMP act inh, no call of its own (marks repeat the call); RFP signal change, %; measured here: RFP expression control read;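 0 = vehicle wells; hits needed this value within 50% of zero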
# * marks the source's active call; other numbers are inactive results; i = inactive; nt = no result given.
# Field names: A = Rce1 inhib; B = HIV Env fusion; C = MT1-MMP act inh; D = MT1-MMP act inh RFP; E = CSC inhib; F = Yeast UUG start; G = PABP polyA inh; H = eIF4H inh
COC(=O)c1ccc(NC(=O)CSC2=Nc3ccccc3C3CC=NN23)cc1 (stereo unspecified)
  A = i; B = nt; C = -0.8; D = -2.9; E = -3.3; F = 3.9; G = -4.6; H = -7.5

CC(NCc1ccncc1)C12CC3CC(CC(C3)C1)C2 (stereo unspecified)
  A = i; B = -3.9; C = -3.8; D = -0.4; E = -14.8; F = nt; G = -0.6; H = -16.5

O=S1(=O)CCO[C@H]2Cc3ccccc3[C@H]2N1Cc1ccc(Cl)cc1
  A = i; B = 15.7; C = 1.6; D = -0.1; E = 7.3; F = 13.7; G = -6.3; H = -5.3

Cc1ccc(-c2c(C#N)c(N)n(-c3ccc(Cl)cc3)c(=O)c2C#N)cc1
  A = nt; B = -2.7; C = 0.8; D = 0.7; E = nt; F = -13.4; G = nt; H = nt

COC(CNC(=O)c1ccc2c(=O)n(Cc3ccc4c(c3)OCO4)c(=S)[nH]c2c1)OC
  A = i; B = 0.3; C = 2.2; D = -1.5; E = -9.0; F = -15.3; G = -4.1; H = -1.3

COc1ccc(CCNC(=O)CSc2nnnn2Cc2ccc3c(c2)OCO3)cc1OC
  A = i; B = nt; C = -0.3; D = -3.9; E = 6.3; F = 2.2; G = 1.2; H = -1.6

C=Cc1ccc(C2=CC(=O)C[C@H](c3ccc(OC)cc3)C2)cc1
  A = nt; B = -30.7; C = 5.2; D = 4.1; E = 12.4; F = -12.5; G = nt; H = nt

Cc1ccc(C(=O)NNc2cc(=O)n(C)c(=O)n2C)cc1C
  A = nt; B = -0.2; C = 0.0; D = -0.1; E = -0.3; F = -2.7; G = -1.0; H = 3.4

CCCn1c(SCC(=O)NCc2ccco2)nnc1-c1ccncc1
  A = i; B = 3.2; C = -3.2; D = 2.6; E = -6.2; F = nt; G = 0.9; H = -9.0

CSc1ccccc1OCc1cc(C(=O)NCc2csc(C(C)C)n2)no1
  A = i; B = 15.2; C = 5.8; D = 3.0; E = -2.8; F = -8.3; G = 10.6; H = 0.8

Cc1ccccc1C(O)c1ccccn1 (stereo unspecified)
  A = i; B = -2.8; C = 10.5; D = 8.6; E = -6.6; F = 24.1; G = -5.8; H = -3.1

O=C(COC(=O)c1cccnc1Cl)c1ccc(F)cc1
  A = i; B = 14.3; C = -3.1; D = -1.6; E = -0.8; F = nt; G = -9.0; H = -0.8

O=C1OC(c2ccccc2)(N(Nc2ccccc2)c2ccccc2)c2ccccc21 (stereo unspecified)
  A = nt; B = 18.3; C = -0.8; D = 0.9; E = nt; F = -10.5; G = nt; H = nt

Cc1onc(-c2ccccc2)c1C(=O)Nc1cccc(S(=O)(=O)NC2=NCCC2)c1
  A = nt; B = nt; C = -1.1; D = -2.8; E = -5.6; F = 10.1; G = nt; H = nt

O=C(c1cccc(S(=O)(=O)Nc2ccc(Br)cc2)c1)N1CCCC1
  A = i; B = -1.1; C = 2.5; D = 1.9; E = 34.2; F = nt; G = nt; H = nt

# Record cards, from the list above. Order of values: Rce1 inhib | HIV Env fusion | MT1-MMP act inh | MT1-MMP act inh RFP | CSC inhib | Yeast UUG start | PABP polyA inh | eIF4H inh
# `COC(=O)c1ccc(NC(=O)CSC2=Nc3ccccc3C3CC=NN23)cc1` (stereo unspecified) across the screens: i | nt | -0.8 | -2.9 | -3.3 | 3.9 | -4.6 | -7.5
# `COc1ccc(CCNC(=O)CSc2nnnn2Cc2ccc3c(c2)OCO3)cc1OC` across the screens: i | nt | -0.3 | -3.9 | 6.3 | 2.2 | 1.2 | -1.6
# `Cc1onc(-c2ccccc2)c1C(=O)Nc1cccc(S(=O)(=O)NC2=NCCC2)c1` across the screens: nt | nt | -1.1 | -2.8 | -5.6 | 10.1 | nt | nt

# Next compounds
# Field names: A = Rce1 inhib; B = HIV Env fusion; C = MT1-MMP act inh; D = MT1-MMP act inh RFP; E = CSC inhib; F = Yeast UUG start; G = PABP polyA inh; H = eIF4H inh
CC1(C)CC2CC(C)(CN2c2ncnc3ccc(Br)cc23)C1 (stereo unspecified)
  A = i; B = 22.1; C = -14.4; D = -21.5; E = 4.2; F = nt; G = 0.9; H = 5.1

CCOc1cc(C(=O)Nc2ccc(S(=O)(=O)N3CCOCC3)cc2)cc(OCC)c1OCC
  A = i; B = nt; C = -9.4; D = 0.1; E = -8.4; F = 1.4; G = -2.0; H = -14.6

Cc1ccc(Cl)cc1N(C)C(=O)Cn1ncc2c([nH]c3ccccc32)c1=O
  A = i; B = 5.9; C = 0.9; D = -1.2; E = -8.7; F = -6.8; G = 14.5; H = 0.5

CCC(CC)NC(=O)c1oc2ccccc2c1COc1ccccc1
  A = i; B = 12.7; C = -2.2; D = 0.6; E = 27.5; F = nt; G = -4.3; H = -1.7

C[C@H](NC(=O)c1ccccc1)C(=O)N1CCC2(CC1)NCCc1[nH]cnc12
  A = i; B = -4.6; C = -0.6; D = 0.4; E = -17.9; F = -13.5; G = nt; H = nt

CCOC(=O)CNc1nc(Oc2ccc(=O)n(C)n2)nc(N(CC)CC)n1
  A = i; B = -1.9; C = 2.5; D = -0.2; E = -11.0; F = nt; G = 12.5; H = 1.7

CCN(CC)C(c1ccc(C)cc1)c1nnnn1C1CCCCC1 (stereo unspecified)
  A = i; B = 34.1; C = -14.1; D = -7.4; E = 0.2; F = -12.6; G = -8.4; H = 9.7

Cc1cc(C(=O)N/N=C2\CC(=O)CC(C)(C)C2)n[nH]1
  A = i; B = nt; C = 0.0; D = 7.1; E = -7.1; F = -16.8; G = -3.7; H = 1.3

O=C(CCN1CCC(c2ccccc2)C1)c1cccs1 (stereo unspecified)
  A = i; B = -25.1; C = 0.4; D = 1.1; E = 4.8; F = nt; G = 5.5; H = 10.6

CN(C)S(=O)(=O)c1cccc(NC(=O)c2ccc(COc3ccccc3)cc2)c1
  A = i; B = 52.8; C = -6.0; D = -26.3; E = 19.9; F = -2.3; G = -6.2; H = -11.2

O=c1[nH]c(/C=C/c2ccc(Br)cc2)nc2c1cnn2-c1ccccc1
  A = i; B = nt; C = nt; D = nt; E = nt; F = nt; G = -4.2; H = -2.7

Cc1sc2nc(CC(N)=O)[nH]c(=O)c2c1-c1ccccc1
  A = i; B = nt; C = 2.2; D = 4.9; E = -16.9; F = nt; G = 6.0; H = -3.7

c1ccc([C@H]2CN3C(=N2)Sc2ccccc23)cc1
  A = nt; B = nt; C = 0.9; D = 7.4; E = 16.5; F = -66.7; G = nt; H = nt

COc1ccc(OC)c(C2=NOC(C(=O)NCc3ccco3)C2)c1 (stereo unspecified)
  A = i; B = -75.3; C = -0.4; D = 1.9; E = -3.9; F = -9.4; G = -0.5; H = -5.6

Nc1nc(OCC(F)(F)F)cc(Oc2ccccc2F)n1
  A = i; B = -124.2; C = 5.8; D = -2.0; E = -3.0; F = -1.2; G = -3.1; H = -6.6

CCOc1ccccc1CN1CCN(S(C)(=O)=O)CC1
  A = i; B = 5.7; C = -0.7; D = 2.5; E = -13.5; F = -6.8; G = 4.8; H = -0.1

O=C(Nc1ncccn1)c1cc([N+](=O)[O-])cc([N+](=O)[O-])c1
  A = i; B = -22.9; C = 2.7; D = 2.9; E = -16.0; F = nt; G = -3.4; H = -7.1

Cc1ccc(S(=O)(=O)N/N=C\c2cn(-c3ccccc3)nc2-c2ccccc2)cc1
  A = i; B = -32.4; C = 2.5; D = -2.1; E = 13.9; F = -14.8; G = -3.5; H = -1.5

COc1ccc(NC(=S)NC(=O)c2csnn2)cc1
  A = i; B = 1.3; C = 0.9; D = 4.1; E = -2.0; F = nt; G = 0.1; H = 4.7

CCCc1cc(Nc2c(C)n(C)n(-c3ccccc3)c2=O)n2c(nc3ccccc32)c1C#N
  A = i; B = -88.7; C = -15.9; D = -9.7; E = -4.8; F = -19.4; G = 6.8; H = 8.0

O=C(COC(=O)c1cccc(S(=O)(=O)N2CCOCC2)c1)NCc1ccc2c(c1)OCO2
  A = nt; B = 4.7; C = -2.2; D = 3.3; E = -0.4; F = -12.4; G = nt; H = nt

COc1ccc(NC(=O)N(Cc2ccc(C)cc2)Cc2cccnc2)c(OC)c1
  A = i; B = -6.5; C = 1.2; D = 1.2; E = nt; F = 10.6; G = 1.1; H = -8.5

Cc1ccc(C2C(=O)N(C3CCCC3)CC(=O)N2CC2COc3ccccc3O2)cc1 (stereo unspecified)
  A = nt; B = 0.5; C = -9.9; D = -13.4; E = -5.4; F = 9.0; G = -2.0; H = 0.1

CCN(CC)c1nc(C(F)(F)F)nc2c1nnn2Cc1ccccc1
  A = i; B = -1.6; C = -1.5; D = -7.7; E = -3.8; F = -9.2; G = 7.9; H = -2.0

CC(=O)N1CCCc2cc(S(=O)(=O)N3CCCC(C(=O)Nc4ccccc4C)C3)ccc21 (stereo unspecified)
  A = i; B = -3.4; C = 4.6; D = -8.5; E = -13.2; F = -17.9; G = 11.5; H = -2.0

COc1cc(CCCN2CCNC[C@@H]2Cc2ccc(O)cc2)cc(OC)c1OC
  A = i; B = -8.5; C = -9.3; D = 0.1; E = 5.7; F = -13.0; G = nt; H = nt

COc1ccccc1C(=O)NCCCNC(=O)c1cnccn1
  A = i; B = 9.9; C = 0.8; D = -0.9; E = -12.1; F = -11.3; G = 0.9; H = -2.4

COc1ccc(C)cc1NC(=O)CN1C(=O)COc2ccc(S(=O)(=O)N3CCC(C)CC3)cc21
  A = i; B = 28.3; C = 0.4; D = -0.9; E = 17.2; F = -9.2; G = nt; H = nt

CN1CCN(S(=O)(=O)c2ccc(N)cc2)CC1
  A = i; B = 0.1; C = -1.4; D = 3.8; E = -14.1; F = -10.9; G = -11.3; H = -7.0

Cc1cccc(OCc2nnc(SCC(=O)c3ccccc3)o2)c1
  A = i; B = 14.7; C = 4.0; D = 3.6; E = 10.1; F = -13.6; G = 4.0; H = -6.5

O=C(O)C1CCCN(S(=O)(=O)c2ccc(F)cc2)C1 (stereo unspecified)
  A = i; B = nt; C = 0.8; D = 2.2; E = nt; F = 0.0; G = 2.2; H = -5.6

CCS(=O)(=O)c1ccc(S(=O)(=O)CC)s1
  A = i; B = -76.7; C = 4.0; D = 4.0; E = 5.2; F = 5.2; G = -7.2; H = -4.9

COc1ccc(N2C(=O)CC(NCc3ccncc3)C2=O)cc1 (stereo unspecified)
  A = i; B = nt; C = 3.6; D = 1.8; E = 3.7; F = -20.8; G = 2.4; H = 5.8

COC(=O)CN(c1ccc2c(c1)OCO2)S(=O)(=O)c1c(C)[nH]c(=O)[nH]c1=O
  A = i; B = 2.3; C = -2.4; D = -1.3; E = 7.6; F = -14.5; G = -1.5; H = 3.1

COc1cccc(-c2nn3c(-c4ccco4)nnc3s2)c1
  A = i; B = -133.5; C = -2.9; D = -1.8; E = -5.8; F = -13.1; G = 38.9; H = 33.4

CCOC(=O)c1c(NC(=O)C(C)Sc2cccc[n+]2[O-])sc2c1CCN(Cc1ccccc1)C2 (stereo unspecified)
  A = nt; B = 15.2; C = -18.2; D = 1.9; E = -4.1; F = nt; G = 0.9; H = 8.8

CCCCN1CC(COCc2ccccc2)Oc2cccc(Oc3ccc(C(C)C)cc3)c2S1(=O)=O (stereo unspecified)
  A = nt; B = 63.5*; C = -0.4; D = -8.0; E = nt; F = 1.0; G = nt; H = nt

Cn1ncc(Br)c1C(=O)N/N=C/c1cccc(OC2CSC2)c1
  A = i; B = -5.1; C = -0.8; D = 2.1; E = 0.7; F = nt; G = 5.0; H = -7.4

NC(=O)c1cccc(-c2cccc(OC(=O)NC3CCCCC3)c2)c1
  A = i; B = -16.4; C = -2.9; D = -3.6; E = -5.4; F = -15.6; G = 2.3; H = 1.9

CCOC(=O)c1oc2cc(O)ccc2c(=O)c1-c1csc(C)n1
  A = i; B = nt; C = 0.7; D = -2.7; E = -12.0; F = -5.1; G = -7.0; H = -1.4

O=[N+]([O-])c1cc(C(F)(F)F)cc([N+](=O)[O-])c1NCCCN1CCOCC1
  A = i; B = 6.5; C = 2.6; D = 1.9; E = -3.9; F = nt; G = -5.2; H = -9.0

# High-throughput results deposited in PubChem by several laboratories.
